TRPML1 inh = blocks the human TRPML1 channel | AID 624415 | TRPML1-inducible cells, Ca2+ dye fluorescence, FDSS; stronger effect = lower value; inhibition of EC80 agonist-evoked calcium signal | Q9GZU1 | actives 0.02% (n = 390,000) | activity change, negative = inhibition, % (no concentration beside the values); in the data active means activity change below about -50%; inconclusive means about -30% to -50%; inactive means above about -30%;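 further: stimulus is agonist 54-4 at its EC80 concentration; on the % scale 0 is the no-effect control and ±100 the full control effect; compound concentration not given in the record; the text of the record puts the active cut at -80%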
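Tet-induced TRPML1-DL cells loaded with Ca8 no-wash calcium dye were read kinetically on FDSS. Compound addition was followed by EC80 agonist 54-4 (4 uM final); inhibition was read over 110 s.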
CtBP-E1A blk = CtBP/E1A binding inhibition | activity change, % (concentration not given with the values) | AlphaScreen GST-E1A/His-CtBP binding, 1536-well; stronger effect = lower value; control for the full effect not named in the record | actives 0.49% (n = 340,000); in the data active means activity change below about -65%; inconclusive means about -30% to -65%; inactive means above about -30%; further: on the % scale 0 is the no-effect control and ±100 the full control effect
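Homogeneous bead-based format: GST-tagged E1A captured on glutathione donor beads, His-tagged CtBP on nickel acceptor beads; compounds precede bead addition by 2 h at 37 °C.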
D2 potentiator = positive allosteric modulators of human D2 dopamine receptor; potentiation, % (concentration not given with the values); DiscoveRx D2 beta-arrestin cells, luminescence, 90 min; 100% = 57 uM dopamine signal; P14416; actives 0.23% (n = 360,000); AID 624464; active = potentiation of 50% or more; inconclusive = 30% to 50%; inactive = 30% or less;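 further: compound concentration not given in the record; tested on top of an EC20 dose of dopamine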
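PathHunter beta-arrestin assay in DiscoveRx D2 cells. Compounds were added with an EC20 of dopamine (50 nM final) for 90 min at 37 deg C. Luminescence was read 1 h after detection reagent, with 57 uM dopamine as the EC100 control.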
TRPML1 ag = activates the human TRPML1 channel; Q9GZU1; TRPML1-expressing cells, Ca2+ dye fluorescence, FDSS; host cell line not named in the record; reference of the full effect not given here; activation, % (test concentration not listed); actives 0.12% (n = 410,000); AID 624414; in the data active = activation above about 50%; inconclusive = about 30% to 50%; inactive = below about 30%; further: 0% is about no effect; the text of the record puts the active cut at 80%
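Kinetic FDSS Ca2+ read in Tet-induced TRPML1-DL cells (ABD Ca8 dye plus quencher, 45-90 min RT loading): baseline, then compound, then 110 s agonist window; EC80 agonist 54-4 at 4uM final added afterwards for a 110 s antagonist window.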
Six1-Eya2 blk = Six1/Eya2 interaction inhibition | AlphaScreen GST-Six1/His-Eya2 binding, biochemical; stronger effect = lower value; control for the full effect not named in the record | activity change, % (concentration not given with the values) | actives 0.56% (n = 360,000); in the data active = activity change below about -65%; inconclusive = about -30% to -65%; inactive = above about -30%; further: on the % scale 0 is the no-effect control and ±100 the full control effect
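GST-Six1 + His-Eya2 (5X stock: 250/500 nM); Tris pH 8.0, 300 mM NaCl, 0.05% BSA, 0.02% Tween 20; GSH donor/Ni acceptor beads; 1 h 37 °C dark; AlphaScreen readout.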
TRPV1 potentiator = enhances activation of the human vanilloid receptor TRPV1 | actives 0.02% (n = 320,000) | AID 540277 | potentiation, % at 8.33 µM | Q8NER1 | TRPV1-expressing cells, Fluo-8 calcium influx, capsaicin EC20 potentiation; host cell line not named in the record; control for the full effect not named in the record; active means potentiation above 80%; inconclusive means 30% to 80%; inactive means below 30%; further: 0% is about no effect
Target sequence (Q8NER1 whole entry, looked up): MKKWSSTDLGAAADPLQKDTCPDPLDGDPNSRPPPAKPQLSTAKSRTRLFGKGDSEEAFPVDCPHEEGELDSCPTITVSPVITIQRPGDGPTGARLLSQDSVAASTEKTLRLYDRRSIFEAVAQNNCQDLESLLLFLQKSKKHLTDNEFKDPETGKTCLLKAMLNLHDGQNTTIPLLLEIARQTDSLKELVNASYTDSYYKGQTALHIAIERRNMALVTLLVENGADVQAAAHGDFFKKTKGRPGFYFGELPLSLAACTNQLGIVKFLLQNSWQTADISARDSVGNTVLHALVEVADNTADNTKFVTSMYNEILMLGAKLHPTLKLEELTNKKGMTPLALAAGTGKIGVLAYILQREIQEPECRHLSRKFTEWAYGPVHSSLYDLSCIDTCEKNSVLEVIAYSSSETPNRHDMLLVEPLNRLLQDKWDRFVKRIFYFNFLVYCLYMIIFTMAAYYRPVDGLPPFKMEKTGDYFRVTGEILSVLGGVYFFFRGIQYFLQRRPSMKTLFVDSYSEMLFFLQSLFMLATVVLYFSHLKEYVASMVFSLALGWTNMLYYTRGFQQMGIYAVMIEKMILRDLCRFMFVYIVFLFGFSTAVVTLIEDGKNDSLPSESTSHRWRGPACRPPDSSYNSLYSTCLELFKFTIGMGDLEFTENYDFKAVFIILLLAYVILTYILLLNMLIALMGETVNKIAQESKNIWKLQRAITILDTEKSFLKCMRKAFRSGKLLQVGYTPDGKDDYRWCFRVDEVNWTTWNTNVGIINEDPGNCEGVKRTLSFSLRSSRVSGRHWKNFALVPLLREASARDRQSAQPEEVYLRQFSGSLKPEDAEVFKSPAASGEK
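Cells expressing TRPV1 were dye-loaded with Fluo-8 and read kinetically: 10 s baseline, 3 min after compound (agonist portion), then 2 min after EC20 capsaicin (allosteric enhancer portion). Calcium-bound dye fluorescence at 480/520 nm.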
An asterisk follows results filed as active; ? = inconclusive; nt = not tested or not shown; & = joins results of further samples.

SMILES	TRPML1 inh	CtBP-E1A blk	D2 potentiator	TRPML1 ag	Six1-Eya2 blk	TRPV1 potentiator
COc1ccc(NC(=O)CC(CC(=O)O)c2cc(OC)c(OC)c(OC)c2)cc1 (configuration not stated)	-10	46	4	0.2	32	-10
Cc1cccc(NC(=S)N=Nc2c(O)[nH]c3ccccc23)c1	-12	-27	-27	0.7	?	2
COCCCn1cc(C(=O)c2cc(OC)ccc2OCC(=O)N2CCCCC2C)cc(C#N)c1=O (configuration not stated)	4	-25	-6	-0.9	2	4
CCc1nn(CCCC(=O)NCc2ccc(C)cc2)c(=O)c2cc3occc3n12	11&7	nt	-9	0.3&0.2	2	-1
CSc1ncccc1C(=O)NC1CCCc2c1cnn2-c1ccc(C)c(C)c1 (configuration not stated)	7	-5	-9	1.0	1	-6
CCn1nc(C)c(CNCc2cn[nH]c2-c2cc3ccccc3o2)c1C	-4	4	2	1.3	2	-11
C=CCn1c(O)c(N=Nc2ccccc2)c2ccccc21	-15	-21	-3	4.5	-5	2
O=S(=O)(c1cccc(S(=O)(=O)N2CCOCC2)c1)N1CCCCCC1	-3	nt	3	0.1	5	-28
Cc1ccc(CNC(=O)Nc2ccc(F)cc2F)n1C	35	-25	-10	0.8	-5	-2
COc1ccc(C(=O)NCC(=O)N/N=C(\C)Cc2ccccc2)cc1	-14	nt	-10	-0.7	-1	14
Cc1ccc2c(C(=O)N3CCN(c4ccccc4)CC3)cc(-c3cccnc3)nc2c1C	16	-2	-1	3.0	-12	16
CCC(C)OC(=O)C1C(c2ccccc2)C(C(=O)O)C1c1ccccc1 (configuration not stated)	14	0	1	-0.1	-13	-7
O=C(CCCCCBr)N1CCC(CC2CC(c3ccc(Cl)cc3)=NO2)(C(=O)NCC2CCCCC2)CC1 (configuration not stated)	-3	7	-47	-0.3	2	-3
COc1ccc(NC2=Nc3ccccc3N3C2=Nc2c(c(C)nn2-c2ccc(C)cc2)C3c2cccnc2)cc1 (configuration not stated)	13	-5	-16	-0.1	2	3
COc1ccc(CNS(=O)(=O)c2ccc(F)cc2Br)cc1	23	7	nt	-0.9	10	nt
CC(CCc1ccccc1)NC(=O)COC(=O)CC1CC2CCC1C2 (configuration not stated)	-10	10	-3	0.9	6	-6
CCOc1ccccc1N1CCN(C(=O)CCCc2nc3ccccc3s2)CC1	25	-13	-5	2.6	-7	-10
COC(=O)CCC(=O)N1CCc2cc(S(=O)(=O)N3CCN(c4ccccc4Cl)CC3)ccc21	32	-2	1	1.9	0	18
CC(C)NC(=O)c1c2c(nc3ccccc13)CCCC2	31	1	-26	-0.6	5	-18
OCCCNc1ncnc2scc(-c3ccc(Cl)cc3)c12	-8	-1	2	-1.6	-8	-2
CCCSc1nn2c(=O)c3ccccc3nc2s1	1	?	14	-1.2	?	-7
CC(/C=N/O)Cc1ccc2c(c1)OCO2 (configuration not stated)	10	-7	-8	0.5	2	-25
CCOC(=O)C1(Cc2ccccc2)CCN(Cc2ccc(C)s2)CC1	65	0	-21	1.5	-6	-10
C=CC[C@@H]1Cc2c(Br)ccc(Br)c2[C@@H](CC=C)N1	5	10	12	0.2	14	9
Cc1ncc([N+](=O)[O-])n1CCOC(=O)NC(NCc1ccccc1Cl)C(Cl)(Cl)Cl (configuration not stated)	12	8	-9	-0.5	9	2
CCn1c(SCc2nc3sc(C(=O)O)c(C)c3c(=O)[nH]2)nnc1-c1ccc(Cl)cc1	0	3	6	0.0	-19	4
O=c1ccc(S(=O)(=O)N2CCCC2)cn1Cc1nc(-c2ccc(F)cc2)no1	-14	8	-12	-0.2	6	6
Cc1cc(=O)oc2c(C)c(OCC(=O)N3CCN(c4ccc(F)cc4)CC3)ccc12	-4	-3	2	0.2	-9	-3
CC(C)CCN1CC(O)=C(c2nc(-c3ccc(Cl)cc3)cs2)C1=N	6	4	-11	0.6	-1	9
COCCCN1C(=O)C(=O)/C(=C(/O)c2ccc(OC)cc2)C1c1cccc(OC)c1 (configuration not stated)	3	2	27	-0.3	-2	-10
COc1cc(C)c(Cl)c(C)c1S(=O)(=O)NCc1cccnc1	-9	-8	-7	0.3	6	16
COc1ccc(NC(=O)c2c(C)noc2C)cc1S(=O)(=O)N1CCCCC1	-1	-2	-10	-0.4	1	nt
NC(N)=NC(N)=NCCc1ccccc1	-2	0	-6	-0.9	9	-5
Cc1oc(-c2cccc(Cl)c2)nc1CN1CCCC(C(=O)NC(C)c2ccc3c(c2)OCCO3)C1 (configuration not stated)	11	-9	-4	3.3	-22	-15
NS(=O)(=O)c1ccc(CNc2ccc3ccccc3n2)cc1	-8	7	-9	-0.4	3	16
N#Cc1ccccc1NC(=O)CSc1nccn1CCc1ccccc1	-4	1	-2	0.4	0	-8
Cc1noc(C)c1CSc1nnc(-c2c[nH]c3ccccc23)n1-c1ccc(Cl)cc1	-2	3	-6	-0.4	12	-21
O=C(NCC(=O)N1CCN(Cc2ccccc2)CC1)c1ccc(Br)cc1	-1	5	11	-0.2	0	2
O=C1[C@@H]2Cc3c([nH]c4ccccc34)CN2C(=O)CN1CCCCCO	nt	-12	-7	nt	0	-13
CCOCCCNC(=O)CCn1ccc2cc(S(=O)(=O)N3CCCC3)ccc21	34	-15	-9	0.0	7	6
Cc1ccc(-c2nc(CS(=O)CC(=O)NCCCN3CCN(Cc4ccccc4)CC3)c(C)o2)cc1 (configuration not stated)	-7	-20	-36	0.8	-12	6
Cc1nnc(NC(=O)c2ccc(Br)cc2)s1	-10	3	2	0.3	-3	10
Cc1cccc(CN2CCC(n3nccc3NC(=O)c3ccccc3C)CC2)n1	-9	2	-21	1.6	0	-14
C/C=C(\C)C(=O)NNC(=O)c1sc(-c2ccccc2)nc1C	3	-9	-3	-0.7	3	1
CCN(C(=O)c1cc2c(s1)-c1ccccc1S(=O)(=O)C2)c1cc(OC)ccc1OC	10	-14	-3	0.2	-13	-10
O=C(NCCCN1CCOCC1)c1c(F)c(F)c(F)c(F)c1F	4	9	-9	1.2	-6	-1
CCCC(O)(c1ccccc1)C(CN1CCOCC1)c1ccccc1 (configuration not stated)	-1	1	-7	0.3	10	-9
CC12CN3CC(C)(CN(C1)C3c1ccccc1Cl)C2O (configuration not stated)	-10	14	3	-0.1	-1	?
CCn1nc(NS(=O)(=O)c2ccc(NC(C)=O)cc2)c2cc3cc(C)ccc3nc21	-2	-12	-14	-0.3	-6	?
COc1ccc(-c2cc3nc(-c4ccccc4)cc(N4CCN(C(=O)c5ccsc5)CC4)n3n2)cc1	-5	0	-2	0.0	2	nt
CCOC(=O)c1c(NC(=O)N/N=C/c2ccccc2OCC)sc(C(C)=O)c1C	-10	-5	-3	-0.3	1	-3
O=C(c1cc(C2CCCCN2C(=O)CCCc2ccccc2)on1)N1CCOCC1 (configuration not stated)	nt	5	-9	-0.2	-2	nt
Cc1[nH]nc2c1C(c1ccccc1F)NC2=O (configuration not stated)	-4	3	0	-0.8	-5	nt
CC(C)(C)c1ccc(C(=O)NCCCn2ccnc2)cc1	-12	5	4	-0.7	-1	-34
CC(C)C(=O)Nc1cccc(-c2nc3ccccc3c(=O)o2)c1	48	-1	-19	-0.4	0	5
C[n+]1ccn(CC(=O)c2ccc(Br)cc2)c1	-13	-5	-6	0.6	8	-2
O=C(C1CCCN(S(=O)(=O)c2ccccc2)C1)N1CCCCC1 (configuration not stated)	-17	7	-7	-0.3	5	3
CCCc1nnc(NC(=O)C(CC)OC(=O)c2cc(C)nc3ccccc23)s1 (configuration not stated)	4	-2	-2	1.1	-10	5
O=C1OCCC1Sc1nc2ccccc2c(=O)n1-c1ccc(F)cc1 (configuration not stated)	3	36	-8	0.5	-1	-20
COc1ccccc1Cc1c(-c2ccccc2)nc2ccc(Br)cn12	nt	4	-4	1.7	-5	nt

3 structures out of the list, ordered by number of heavy atoms, ascending:
SMILES	TRPML1 inh	CtBP-E1A blk	D2 potentiator	TRPML1 ag	Six1-Eya2 blk	TRPV1 potentiator
O=C(C1CCCN(S(=O)(=O)c2ccccc2)C1)N1CCCCC1 (configuration not stated)	-17	7	-7	-0.3	5	3
O=C1OCCC1Sc1nc2ccccc2c(=O)n1-c1ccc(F)cc1 (configuration not stated)	3	36	-8	0.5	-1	-20
CCOC(=O)c1c(NC(=O)N/N=C/c2ccccc2OCC)sc(C(C)=O)c1C	-10	-5	-3	-0.3	1	-3

Additional entries follow.
SMILES	TRPML1 inh	CtBP-E1A blk	D2 potentiator	TRPML1 ag	Six1-Eya2 blk	TRPV1 potentiator
O=c1cc(O)c2sc(Nc3ccc(Cl)c(F)c3)nc2[nH]1	1	-10	-1	0.8	-4	-2
O=C(O)CCCC(=O)NCCCCc1ccccc1	24	9	-2	0.3	2	5
Cc1ccc2c(c1)N(C(=O)CCC(=O)NCCCN1CCOCC1)CCO2	-6	6	-4	-0.4	1	-7
CC(=O)NC(CC(=O)Nc1nc(-c2ccc(N(C)S(C)(=O)=O)cc2)cs1)c1ccccc1 (configuration not stated)	2	9	3	-0.4	-9	4
CSc1ccc(/C=N\NC(=O)CC(=O)NC(C)C)cc1	13	14	-11	0.0	2	12
Cc1cccc(Cn2c(SCCN3CCCCC3)nc3c2c(=O)[nH]c(=O)n3C)c1	10	-15	-3	0.2	2	-12
O=S(=O)(c1ccc(=S)[nH]c1)N1CCCC1	-16	-2	-36	0.0	1	nt
CC(=O)n1cc([C@H]2C=C(C(=O)N3CCN(Cc4ccccc4)CC3)O[C@@H](OCCCCO)C2)c2ccccc21	43	-5	-8	0.2	-9	7
CC1CN(S(=O)(=O)c2ccc(NC(=O)c3ccco3)cc2)CC(C)O1 (configuration not stated)	5	-13	-12	4.1	-1	10
CCN(CC)S(=O)(=O)c1ccc(N2CCOCC2)c(NC(=O)COc2ccccc2C)c1	-1	-4	1	10	-7	-4
COCc1cc(C)nc(OCC(=O)N/N=C/c2ccco2)c1C#N	-5	-3	-27	-0.3	-3	6
O=C(O)c1ccc(Cl)c(S(=O)(=O)Nc2ccc3cn[nH]c3c2)c1	0	0	1	0.0	5	-8
CSCCC(NC(=O)c1ccc(Cl)cc1)C(=O)OCC(=O)c1ccc[nH]1 (configuration not stated)	4	-9	-26	0.0	-7	?
O=C(NCCSSCCNC(=O)c1ccccc1)c1ccccc1	-3	-8	-20	0.7	10	nt
CCOC(=O)c1cc2sccc2n1CC(=O)OC(C)C	16	12	-7	0.4	4	2
Cc1noc(C)c1S(=O)(=O)Nc1ccc(C(=O)N2CCN(c3ccc(Cl)cc3)CC2)cc1	6	2	-1	-0.3	0	-6
O=C(/C=C/c1ccc(Cl)cc1)Nc1nccs1	-5	nt	-24	4.4	-3	-1

Entries of single compounds, quoted from the list.
Entry for `O=C(/C=C/c1ccc(Cl)cc1)Nc1nccs1` → TRPML1 inh = -5; CtBP-E1A blk = nt; D2 potentiator = -24; TRPML1 ag = 4.4; Six1-Eya2 blk = -3; TRPV1 potentiator = -1
Entry for `CCOC(=O)c1cc2sccc2n1CC(=O)OC(C)C` → TRPML1 inh = 16; CtBP-E1A blk = 12; D2 potentiator = -7; TRPML1 ag = 0.4; Six1-Eya2 blk = 4; TRPV1 potentiator = 2
Entry for `O=C(NCCSSCCNC(=O)c1ccccc1)c1ccccc1` → TRPML1 inh = -3; CtBP-E1A blk = -8; D2 potentiator = -20; TRPML1 ag = 0.7; Six1-Eya2 blk = 10; TRPV1 potentiator = nt

Assay outcomes from PubChem.
